Sfp PPTase inh: qHTS Assay for Inhibitors of Bacillus subtilis Sfp phosphopantetheinyl transferase (PPTase); 4'-phosphopantetheinyl transferase ffp (Bacillus subtilis), Q9F4F7; Biochemical Sfp PPTase activity, qHTS; Potency, µM, for the others: max response, negative = inhibition, most hits filed as inhibitors; 310,000 tested, 3.5% active; active = well fitted inhibition curve with a large enough effect; inconclusive = small, poorly fitted or top-dose-only effect, or another doubt; inactive = no such curve, though single readings can be large or run the other way;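 also: the enzyme is Sfp with the accession as filed and its product quenches rhodamine fluorescence; potency is read from the fitted curve at half-maximal effect; 0% = enzyme reaction without inhibitor and -100% = no enzyme wells; top concentration of the series not given in the record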
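Fluorescence-quenching assay with 15 nM Sfp, 5 uM rhodamine-CoA and 12.5 uM BHQ-2-labelled ybbR peptide in pH 7.6 Hepes/MgCl2 buffer. Enzyme was pre-incubated with compound for 15 min at room temperature. Rate was taken from the 30-min fluorescence change (525/598 nm).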
TRPML1 ag: qHTS for Agonists of the Human Mucolipin Transient Receptor Potential 1 (TRPML1) | Mucolipin-1 (Homo sapiens), Q9GZU1 | TRPML1-expressing cells, Ca2+ dye fluorescence, FDSS; host cell line not named in the record; reference of the full effect not given here | activation, % (no concentration beside the values) | 410,000 tested, 0.12% active | AID 624414, 2012; in the data active = activation above about 50%; inconclusive = about 30% to 50%; inactive = below about 30%; also: 0% is about no effect; the text of the record puts the active cut at 80%
Target sequence (Q9GZU1 whole entry, looked up): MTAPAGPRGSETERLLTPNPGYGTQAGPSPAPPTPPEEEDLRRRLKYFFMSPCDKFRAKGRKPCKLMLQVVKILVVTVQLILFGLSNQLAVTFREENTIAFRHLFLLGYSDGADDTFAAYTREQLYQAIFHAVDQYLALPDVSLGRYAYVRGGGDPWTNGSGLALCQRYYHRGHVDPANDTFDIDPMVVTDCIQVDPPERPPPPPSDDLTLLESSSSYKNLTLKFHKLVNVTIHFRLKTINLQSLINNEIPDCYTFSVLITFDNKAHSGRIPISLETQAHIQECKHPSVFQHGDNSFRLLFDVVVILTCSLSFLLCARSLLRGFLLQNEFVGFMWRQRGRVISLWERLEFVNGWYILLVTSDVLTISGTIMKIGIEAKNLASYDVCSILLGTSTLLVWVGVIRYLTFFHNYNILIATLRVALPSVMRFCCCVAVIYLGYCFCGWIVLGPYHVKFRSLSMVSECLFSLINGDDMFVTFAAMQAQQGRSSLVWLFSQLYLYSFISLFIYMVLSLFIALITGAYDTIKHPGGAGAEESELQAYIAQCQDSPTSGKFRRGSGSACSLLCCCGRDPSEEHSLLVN
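Tetracycline-induced TRPML1-DL cells are seeded and incubated overnight before loading with a no-wash Ca2+ dye and quencher. Agonist activity is taken from the 110 s fluorescence read following compound pin-transfer on an FDSS, before EC80 54-4 challenge.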
TRPV1 PAM: HTS Assay for Compounds that Act as Potentiators of the Vanilloid Receptor 1 | TRPV1-expressing cells, Fluo-8 calcium influx, capsaicin EC20 potentiation; host cell line not named in the record; control for the full effect not named in the record | potentiation, % at 8.33 µM | 320,000 tested, 0.02% active; active means potentiation above 80%; inconclusive means 30% to 80%; inactive means below 30%; also: 0% is about no effect
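TRPV1-expressing cells were cultured overnight at 35.5C and loaded with Fluo-8 calcium dye for 40 to 90 min at room temperature. After a 10 s baseline, compound was added and calcium influx was read kinetically for 3 min (ex 480/em 520 nm).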
ClpP mod: qHTS Assay for Activators of ClpP | ATP-dependent Clp protease proteolytic subunit (Bacillus subtilis (strain 168)), P80244 | purified B. subtilis ClpP, FRET peptide cleavage, 20 min | Potency, µM (top dose mostly 57.5 µM), without a hit: at the top dose activity change, negative = active | 340,000 tested, 1.9% active | AID 651965, 2013; active = well fitted falling curve with a large enough effect; inconclusive = small, poorly fitted or top-dose-only effect; inactive = no such curve, though single readings can be large or run the other way; also: potency is read from the fitted curve at half-maximal effect; the source files actives as falling curves though it sought activators and does not explain the sign; nearly all actives have a fitted effect of over 65% in size; many hits overshoot -100%
Target sequence (P80244 whole entry, looked up): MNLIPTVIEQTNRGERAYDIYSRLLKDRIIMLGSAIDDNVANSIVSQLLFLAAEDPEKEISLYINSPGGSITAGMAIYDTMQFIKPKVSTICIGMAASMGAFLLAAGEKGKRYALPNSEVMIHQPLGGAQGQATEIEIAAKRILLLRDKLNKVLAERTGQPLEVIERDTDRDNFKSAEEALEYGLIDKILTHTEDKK
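Buffer: 100 mM Tris/HCl pH8, 100 mM KCl, 0.05% low protease BSA, 2.5% glycerol, 0.01% Tween-20. ClpP 10 microg/mL final; 20 min RT; delta FRET normalized to ADEP and DMSO controls.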
PINK1 expr mod: A Quantitative High throughput Screen to Identify Chemical Modulators of PINK1 Expression | PINK1 immunofluorescence, high-content cytometry, 24 h | Potency, µM (titrated, usually from 76.6 µM), without a hit: at the top dose activation (PINK1 increase), most hits filed as activators | 410,000 tested, 0.2% active; active = well fitted activation curve with a large enough effect; inconclusive = small, poorly fitted or top-dose-only effect; inactive = flat fitted curve, though single readings scatter; cell line not stated here;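 also: potency is read from the fitted curve at half-maximal effect; % of control where 0% means no effect; nearly all actives have a fitted effect of over 65% in size; a mitochondrial uncoupler was the plate control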
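PINK1 protein level read as immunofluorescence by microplate cytometer in a fixed, stained stable cell line after 24 h exposure to five compound concentrations, with CCCP as control.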
Menin MLL FP FL: qHTS Assay for Inhibitors Targeting the Menin-MLL Interaction in MLL Related Leukemias: Competition With Fluorescein Labeled MLL-derived Peptide. 290,000 tested, under 10 active. Fluorescence polarization, fluorescein-MLL peptide displacement from menin. FP activity change, % at 61.4 µM; inconclusive = falling polarisation curve, or a change in total fluorescence; inactive = total fluorescence flat and polarisation flat or rising; no compound was filed as active; the % refers to the polarisation; negative = inhibition;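 also: % of control where 0% means no effect; inhibitors lower the polarisation; unlabelled MLL peptide was the positive control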
TRPML1 inh: qHTS for Inhibitors of the Human Mucolipin Transient Receptor Potential 1 (TRPML1); Mucolipin-1 (Homo sapiens), Q9GZU1; activity change, negative = inhibition, % (concentration not given with the values); TRPML1-inducible cells, Ca2+ dye fluorescence, FDSS; active compounds read low; inhibition of EC80 agonist-evoked calcium signal; AID 624415, 2012; 390,000 tested, 0.02% active; in the data active means activity change below about -50%; inconclusive means about -30% to -50%; inactive means above about -30%;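 also: stimulus is agonist 54-4 at its EC80 concentration; % is scaled to controls: 0 for no effect and ±100 for the full control effect; the text of the record puts the active cut at -80%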
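TRPML1-DL cells, Tet-induced overnight (~16 h, 37 °C) at 1,500 cells/well, were loaded with Ca8 no-wash dye plus quencher for 45-90 min at room temperature. Compounds were pinned during FDSS kinetic reading; agonist 54-4 at EC80 (4 uM final) then added.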
Numbers without * were called inactive; ? = inconclusive; . = not tested or not shown; & = joins results of further samples; [ ] = another dose, or the depositor's remark.

SMILES	Sfp PPTase inh	TRPML1 ag	TRPV1 PAM	ClpP mod	PINK1 expr mod	Menin MLL FP FL	TRPML1 inh
CC(C)(C)NC(=O)NC(=O)COC(=O)CNC(=O)c1cccc(F)c1	15.3%	-1.2	1.1	1.4%	-0.9%	2.6	5.3
Cc1sc(NC(=O)C2CCCCC2C(=O)O)c(C(N)=O)c1-c1ccc(C(C)C)cc1 (stereo not drawn)	21.1%	-0.3	1.7	-16.4%	0.2%	2.5	6.3
COc1ccc(-c2c(NC(=O)c3ccco3)n(-c3ccccc3)nc(C)c2=O)cc1	15.7%	0.9	-2.6	-1.8%	-1.1%	-2.9	31.3
Cn1cc(SCC(=O)NCc2ccc3c(c2)OCO3)c2ccccc21	7.3%	0.3	17.4	-0.9%	0.4%	5.4	-3.7
O=C(c1cccs1)N1CCN(S(=O)(=O)N2CCOCC2)CC1	-0.1%	1.1	-19.9	1.2%	1.6%	3.6	-11.9
O=C(c1ccc(OC2CCN(Cc3ccccc3OC(F)F)CC2)cc1)N1CCCC1	11.9%	0.9	5.4	0.5%	1.0%	-3.7	-10.6
C/C(CC(=O)NCC(C)C)=N\NC(=O)COc1cc(C)c(Br)cc1Br	16.3%	1.3	?	0.4%	1.8%	-1.0	-6.8
Cc1ccc(-c2csc(NC(=O)c3ccno3)n2)cc1	-0.3%	-0.8	-1.9	0.5%	0.7%	12.6	4.7
O=C(Cn1cnc2c(cnn2-c2ccc(F)cc2)c1=O)NCc1ccco1	3.6%	0.7	1.3	-4.1%	6.6%	0.8	-8.6
CC(=O)c1ccc(S(=O)(=O)NCCC(=O)OCC(=O)NCCc2ccccc2)cc1	0.1%	-0.1	3.9	1.5%	0.0%	.	-6.2
Cc1nc(Oc2ccc(S(=O)(=O)N3CCOCC3)cc2Cl)c2c3c(sc2n1)CCCC3	?	4.0	-17.5	-5.0%	2.6%	6.1	-4.3
Cc1nnc(SCC(N)=O)n1CC1CCCO1 (stereo not drawn)	13.7%	0.0	-12.8	-0.7%	0.7%	-0.2	1.2
O=C(Cc1ccccc1)NNC(=O)Nc1ccc(Cl)c(Cl)c1	20.8%	-0.7	1.0	.	10.1%	0.8	5.7
CCCCCCn1c(CN2CCN(C(=O)c3ccco3)CC2)nc2c1c(=O)n(C)c(=O)n2C	-22.4%	-0.4	4.5	0.7%	-0.5%	-2.2	-2.9
COC(=O)c1ccc(CSc2ncnc3c2nnn3-c2ccc(F)cc2)o1	-6.2%	-1.5	19.3	0.4%	-0.3%	1.7	1.5
CCCc1ncc(C(O)c2cccc(OC)c2)n1C (stereo not drawn)	-4.5%	0.0	2.5	-0.6%	-0.7%	-4.6	-4.9
COc1cccc(Cn2c(=O)cc(C)c3c(C)nn(-c4ccc(C)cc4)c32)c1	.	0.6	.	?	3.8%	.	1.3
COc1cc(CN(C)Cc2nc3cc(C(F)(F)F)ccc3c(=O)[nH]2)ccc1OC(F)F	8.2%	1.1	-6.3	-2.1%	3.4%	-2.7	-7.9
Cc1cc(N)ccc1NC(=O)CN1CCCC1	?	1.0	-5.4	-0.9%	-3.1%	-7.2	-7.0
Cc1ccc(CN2CCCOCCS2(=O)=O)cc1	20.5%	-0.6&-0.5	-12.8	1.7%&1.3%	1.7%	-1.1	31.0
CCOC(=O)C1C(=O)CC(C)(O)C(C(=O)OCC)C1c1ccc(Br)o1 (stereo not drawn)	-24.0%	1.8	-21.3	-1.6%	-2.1%	0.5	0.8
COc1ccc(S(=O)(=O)NCc2c(-c3ccccc3)noc2C)c(OC)c1	15.0%	-0.4	12.9	-0.1%	0.2%	-3.6	4.1
CC(=O)Nc1cccc(/C(C)=N/NC(N)=S)c1	35.5µM*	-0.2	4.7	.	-1.1%	-5.3	2.9
COc1ccccc1C(=O)NCc1ccc2c(c1)CCN2C(=O)c1ccncc1	.	-0.8	.	?	1.2%	.	0.7
O=c1[nH]ncc(N2CCN(C(c3ccccc3)c3ccccc3)CC2)c1Cl	-5.9%	2.4	-0.3	28.2µM*	-1.4%	1.0	25.3
O=C(CCC1CCCN(C(=O)CCCc2ccccc2)C1)N1CCN(c2ccccn2)CC1 (stereo not drawn)	9.4%	-0.1	1.7	-9.5%	1.2%	1.2	25.9
COc1ccc(CN2CCN(S(=O)(=O)c3ccc(F)cc3)CC2)cc1OC	?	0.4	-25.0	-18.1%	-2.8%[38.3 µM]	-1.8	1.2
Cc1c(NC(=O)/C(C#N)=C/c2ccc(-c3ccccc3Cl)o2)c(=O)n(-c2ccccc2)n1C	-5.7%	4.6	11.3	-3.0%	1.6%	0.3	12.5
CCN(CC)c1ccc(NC(=O)CN(C)S(=O)(=O)c2cccc3nsnc23)c(C)c1	.	-0.3	.	-0.3%	1.1%	.	21.2
COC(=O)c1ccc(C(=O)OC)c(NC(=O)CSCc2ccc(Br)cc2)c1	1.5%	3.7	-8.4	?	7.9%[38.3 µM]	5.2	88.3
O=C(Nc1ccc(Cl)c(Cl)c1)N1CCOCC1	11.1%	-0.3	1.6	-1.3%	2.0%	-1.4	-11.1
CCNC(=S)NNC(=O)C1CCN(Cc2ccccc2)CC1	5.1%	-0.7	12.6	.	-0.4%	-3.2	14.9
Cc1ccc(C)c2nc3sc(C(=O)N4CCOCC4)c(N)c3cc12	17.3%	12.8	-6.9	.	1.6%	-3.0	-0.8
COc1ccc(-c2cc3c(=O)n(CC(=O)Nc4ccc(Cl)cc4)nc(C)n3n2)cc1	2.0%	-0.2	-6.0	5.2%	0.5%	.	7.0
O=C1NC(=O)/C(=C\c2ccc(Oc3ccc([N+](=O)[O-])cn3)cc2)S1	12.0%	1.5	11.7	0.6%	3.1%	5.8	-5.9
CC(C)CC(C(=O)NCC1CCCO1)N(C(=O)Cn1nnc(-c2ccc(F)cc2)n1)c1cccc(C(F)(F)F)c1 (stereo not drawn)	11.6%	1.5	16.4	0.9%	.	4.8	4.6
Cc1snc(SCc2ccc(Cl)cc2)c1C#N	-17.2%	3.1	6.5	-2.2%	3.5%	3.2	1.5
COc1ccc(NS(=O)(=O)c2cccc(NC(=O)COc3ccc(OC)cc3)c2)cc1	4.0%	0.3	-18.2	-0.4%	1.5%	-0.1	-19.1
CC(=O)Nc1ccc(Oc2ccc([N+](=O)[O-])cc2Cl)cc1	-12.9%	0.7	-2.9	.	0.8%	-0.7	-7.5
CCOC(=O)c1cn(Cc2cccc(C)c2)nn1	15.8%	-0.7	-6.1	0.0%	-0.3%	5.6	-16.6
CCN(CCCNC(=O)c1cc2c(=O)[nH]c3ccc(C)cc3c2s1)c1ccc(C)cc1	.	2.4	.	-8.1%	14.0%	.	29.4
COc1ccc([C@H]2CC(=O)C[C@@H](CCn3cc(-c4nccn4C)nn3)O2)cc1	.	-0.4	.	-2.8%	0.6%	.	.
O=C(OCc1ccccc1Cl)c1cccnc1Cl	1.6%	1.4	-0.8	-1.1%	1.6%[38.3 µM]	1.7	17.7
O=C(NCCCN1CCOCC1)c1ccc(Cl)cc1[N+](=O)[O-]	15.0%	1.8	14.1	-1.6%	0.7%	5.3	20.7
Cc1ccc(-c2cn3c(n2)sc2cc(C(=O)NC4CCCCC4)ccc23)cc1	.	1.2	.	?	1.1%	.	29.0
COc1ccc(NC(=S)N2CCN(c3ccccn3)CC2)cc1OC	?	-0.2	-8.4	51.6%	3.3%	-1.2	1.2
COc1ccc(S(=O)(=O)NC2CCCCCC2)c(OC)c1	10.9%	2.5	4.9	0.0%	3.2%	.	-10.6
COc1ccc(NC(=O)c2cc(-c3ccc(F)cc3C)n[nH]2)cc1OC	.	-0.3	.	-2.6%	2.6%	.	.
O=S(=O)(c1cccc(Br)c1)N1CCN(c2nc(-c3cccs3)nc3ccccc23)CC1	.	-0.6	.	?	0.7%	.	.
CCN(CC)S(=O)(=O)c1ccc(NC(=S)NC(=O)CC(C)C)cc1	-8.6%	1.1	-20.8	1.0%	3.0%	5.9	14.8
Cc1cc(OCC(=O)N2CCN(c3ccccc3)CC2)c2c(C)c(C)c(=O)oc2c1	16.4%	-0.6	-1.2	-7.4%	3.1%	1.1	0.3
CN(Cc1ccccc1)C(=O)C1CCCN1S(=O)(=O)c1ccc(Cl)cc1 (stereo not drawn)	.	0.3	-1.8	1.8%	1.0%	.	-6.3
CC1(C)Nc2ccccc2N(CCC(=O)N2CCOCC2)C1=O	11.6%	1.1	13.2	-1.5%	12.9%	3.3	6.9
CN1CC(=O)N(CC(=O)Nc2cccc3ccccc23)C1=O	.	0.0	.	1.1%	-0.5%	.	-2.0
O=C(Nc1nnc(S(=O)(=O)N2CCOCC2)s1)c1ccccc1Cl	17.6%	-0.3&-0.7	-13.7	-1.3%&0.9%	5.0%&-0.6%	-0.1	-0.9&-0.3
Cc1ccccc1-n1c(SCC(=O)N2CCCCC2)nc(O)cc1=O	-0.6%	2.1	4.0	0.9%	-0.2%	.	-0.9
CCOc1ccc(N2C(=O)C(C)CNC2=S)cc1 (stereo not drawn)	.	0.3	.	-3.7%	-2.2%	.	-18.4
COC(=O)c1c(-c2ccc(OC)cc2)oc2ccc(-c3ccc(OC)nc3)cc12	-12.8%	-0.6	4.8	4.6%	6.5%	-2.0	-5.2
c1cncc(CNc2cccc(-c3nc4ccccc4[nH]3)c2)c1	-0.2%	1.1	4.1	.	-0.5%	-0.4	-9.0

Screening data: PubChem BioAssay, National Center for Advancing Translational Sciences (NCATS)
